High-throughput results from PubChem.
YopH PTP inh: YopH (Yersinia) phosphatase inhibition | fluorescence Ex485/Em525 | inhibition, %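 (about 10 µM by stock and volumes)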 | 0.16% of 140,000 active | AID 898;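 active means inhibition of 50% or more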;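 further: controls were vehicle for no effect and minimum signal wells for full effect; inactives centre near -20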
Mtb growth: M. tuberculosis H37Rv growth inhibitors, H37Rv strain (AID 1626); 0.95% of 220,000 active; M. tuberculosis H37Rv growth inhibition; higher % means a stronger effect; inhibition, % at 10 µM; hits with a dose series show IC50 in µM;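 active means confirmed in a dose series; inconclusive means inhibition above 80% but not taken into the dose series; inactive means below 80% or under 30% at every dose of the series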;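 further: bacteria incubated seven days before Alamar blue readout; 0% = bacteria only wells and 100% = bacteria with antibiotic wells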
Mtb betalactam: beta-lactam sensitization of Mtb H37Rv; M. tuberculosis H37Rv growth with meropenem, percent inhibition; hits of this screen are not shown here; inhibition, % at 25 µM; 0.27% of 330,000 active;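 active means about 74% or more and at least 40 points above the plate without the antibiotic, then above 30% in a dose series; inconclusive means first-round hits that could not be retested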;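 further: growth measured after seven days incubation then overnight dye step; 0% = bacteria only wells and 100% = bacteria with antibiotic; twin plates without the antibiotic show which effects depend on it; some results filed as inactive read as strong as hits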
RecA splice inh: Mtb RecA intein splicing inhibition; 0.75% of 290,000 active; P9WHJ3; inhibition, %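 (about 9 µM by stock and volumes)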; cell-free RecA intein splicing, fluorescence; in the data active means inhibition above about 30%; inconclusive means no clear call, values can overlap the other calls;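 further: 0% = vehicle wells and 100% = reference inhibitor control wells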
Target sequence (P9WHJ3 whole entry, looked up, canonical isoform): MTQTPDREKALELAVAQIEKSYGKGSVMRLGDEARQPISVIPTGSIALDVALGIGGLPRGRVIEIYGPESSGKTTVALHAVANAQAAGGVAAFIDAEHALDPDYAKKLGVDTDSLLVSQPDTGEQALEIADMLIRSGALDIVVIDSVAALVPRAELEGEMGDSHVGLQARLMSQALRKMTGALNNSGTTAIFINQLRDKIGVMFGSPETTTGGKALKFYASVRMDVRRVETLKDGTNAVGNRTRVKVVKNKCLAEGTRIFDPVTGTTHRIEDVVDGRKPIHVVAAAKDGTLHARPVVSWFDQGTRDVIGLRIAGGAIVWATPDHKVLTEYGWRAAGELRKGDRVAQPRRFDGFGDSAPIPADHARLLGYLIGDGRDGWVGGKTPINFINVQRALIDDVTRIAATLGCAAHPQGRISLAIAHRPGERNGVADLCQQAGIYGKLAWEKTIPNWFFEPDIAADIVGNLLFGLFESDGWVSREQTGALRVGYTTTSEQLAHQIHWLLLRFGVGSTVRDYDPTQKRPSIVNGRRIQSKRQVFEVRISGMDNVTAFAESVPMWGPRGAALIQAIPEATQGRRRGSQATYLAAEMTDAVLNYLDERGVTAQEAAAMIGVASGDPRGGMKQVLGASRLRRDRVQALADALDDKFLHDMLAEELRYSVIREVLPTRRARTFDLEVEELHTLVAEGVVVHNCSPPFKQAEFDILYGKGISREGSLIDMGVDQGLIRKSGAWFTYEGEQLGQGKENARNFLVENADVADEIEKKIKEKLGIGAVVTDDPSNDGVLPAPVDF
Arbovirus inh: arbovirus infection inhibition | inhibition, % at 10 µM | 0.37% of 200,000 active | arbovirus infection cell-based antiviral screen;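 active means inhibition from about 30%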;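 further: bluetongue infection of BSR cells; cell survival read as ATP light after 72 h; 0% = infected wells without compound and 100% = uninfected wells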
Arbovirus inh repeat: also measured in Arbovirus inh; calls as there; inhibition, %; measured here: 10K subset replicate screen; many hits read low in the repeat;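 first of two repeat runs on a subset; 0% = infected and 100% = uninfected wells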
* hit, by the source's call; ? = inconclusive; . = not tested or not shown; & = joins results of further samples. These rows are one share of the data; count on the stated rates, not on these rows.

SMILES | YopH PTP inh | Mtb growth | Mtb betalactam | RecA splice inh | Arbovirus inh | others
CN(C)CC(C)(C)CNC(=S)Nc1ccc(S(=O)(=O)N2CCOCC2)cc1 | -11 | 1% | 3 | -1.1 | -1
Cc1ccc(C(=O)CSc2nnc(-c3ccco3)o2)o1 | -29 | -11% | 6 | 0.5 | -1
CNCc1cc(Cl)cc(OC)c1OC(C)C | . | -1% | . | 2.3 | 12
COc1ccc(/C([O-])=C(/C(=S)Nc2ccc(C)c(C)c2)n2c[n+](C)c3ccccc32)cc1OC | . | 4% | 1 | 5.9 | 5
Cc1ccc(N2CCN(c3ccc(C)cc3)C2c2ccncc2)cc1 | -27 | 24% | 34 | 1.6 | -4
CCc1ccccc1S(=O)(=O)Cc1ccc(C(=O)NC(C)C)o1 | -6 | 0% | -1 | 3.2 | 4 | Arbovirus inh repeat=3
CCOC(=O)c1c(NC(=O)CSc2n[nH]c(-c3ccco3)n2)sc(C)c1C | -18 | -6% | -9 | -2.7 | 20
CN1C(=O)C(=Cc2cc([N+](=O)[O-])ccc2N2CCCCC2)C(=O)N(C)C1=O | . | 1% | -2 | -1.8 | 4
COc1cc(C)nc(NS(=O)(=O)c2ccccc2Cl)n1 | . | . | 7 | 1.3 | .
O/N=C1\CCC2CN(C3CCCCC3)CC2C1 (configuration not stated) | -22 | 1% | -5 | -9.5 | 6 | Arbovirus inh repeat=1
Cc1cc(O)c(-c2cc(C(=O)NCc3ccc4c(c3)OCO4)[nH]n2)cc1C | -14 | -8% | 5 | -1.2 | -1
Cc1cc(=O)c(C(=O)O)cn1-c1ccc(C(C)C)cc1 | . | . | 23 | 2.3 | 6
COc1cc(C)c(/C=C(\C#N)C(=O)Nc2cccc(C)c2)cc1C(C)C | -34 | 4% | 6 | -8.1 | -5
CC1Cn2c(nnc2-c2cc3ccccc3cc2O)S1 (configuration not stated) | -37 | 3% | 8 | -5.7 | 4
COc1ccc(S(=O)(=O)NCC(=O)NCc2cc(=O)n(C)c(=O)n2C)cc1F | . | . | 0 | 0.3 | .
COc1cc(OC)nc(NC(=O)CN2CCN(c3ccc(F)cc3)CC2)n1 | 35 | 1% | -16 | 0.0 | 2
Cn1c(=O)c2sccc2n2c(CCCC(=O)N3CCN(c4ccccn4)CC3)nnc12 | . | . | 2 | -0.1 | .
Cc1ccc(NC(=O)NCCCN2CCOCC2)cc1 | 0 | 0% | 4 | 3.1 | 17
COC(=O)Cn1c(O)c(N=NC(=O)CNC(=O)c2ccc3c(c2)OCCO3)c2ccccc21 | . | . | 5 | -3.0 | .
COc1cccc(COCCN2CCN(S(=O)(=O)c3ccc(C)cc3)CCC2=O)c1 | -28 | -15% | -11 | 6.0 | -6
O=C(COc1ccc(Br)cc1Cl)NC(=O)Nc1ccc2c(c1)OCCO2 | . | 6% | -6 | 0.1 | -6
COc1ccc(C)cc1NC(=O)CSc1nc2ccccc2nc1N1CCCCC1 | . | . | 2 | 4.8 | .
Cc1cc(Nc2cccc(Cl)c2)nc(NCc2ccccc2)n1 | 9 | ? | 100 | 4.9 | 2
Oc1ccc(N2CCN(c3ncnc4sc5c(c34)CCC5)CC2)cc1 | -41 | -8% | -3 | -8.7 | -22
C=CCN1C(=O)C2(OCCCO2)c2cc(Cl)ccc21 | . | . | -3 | 1.1 | .
CC(=O)C1=C(C)N(Cc2ccccc2)C(=O)N[C@H]1c1cccc(C(F)(F)F)c1 | -23 | -4% | 3 | 3.5 | 3
Cc1cc(C)n2nc(C(=O)OCC(=O)N(CCC#N)c3ccc(F)cc3)nc2n1 | . | . | -1 | -2.7 | .
CC(C)CNC(=O)c1nn(Cc2ccccc2)c(=O)c2ccccc12 | . | . | 14 | 1.8 | .
CSC1=NC2(CCCCC2)C2=C(CCCC2)N1 | -31 | -6% | 6 | -1.1 | 1
O=C(/C=C/c1cccnc1)c1ccc([N+](=O)[O-])cc1 | . | . | 100 | -1.4 | .
CCN1CCN(S(=O)(=O)c2ccc(Cl)c(C(=O)N(C)CCOc3ccc(Cl)cc3)c2)CC1 | . | . | -9 | -2.3 | .
CC(=O)Nc1ccc(SCC(=O)N(CCC#N)c2ccc(C)cc2)cc1 | -23 | -14% | -13 | 11 | 3
Cc1cccnc1NC(=O)c1nn(C)c2c1CS(=O)(=O)c1ccccc1-2 | . | . | 5 | -0.8 | .
O=C(O)c1ccc(Nc2ccc([N+](=O)[O-])c3nonc23)cc1 | . | . | 6 | 0.3 | .
CCc1nc2ccccc2n1CC(=O)N1CCN(S(=O)(=O)c2cccc(C(F)(F)F)c2)CC1 | -39 | -6% | 9 | -0.3 | 14
COCCN(C(=O)CNC(=O)c1ccco1)C(C(=O)NC1CCCC1)c1ccc(OC)cc1 (configuration not stated) | . | . | -6 | 5.5 | .

Compounds above containing an NH in an aromatic ring (2):
SMILES | YopH PTP inh | Mtb growth | Mtb betalactam | RecA splice inh | Arbovirus inh | others
CCOC(=O)c1c(NC(=O)CSc2n[nH]c(-c3ccco3)n2)sc(C)c1C | -18 | -6% | -9 | -2.7 | 20
Cc1cc(O)c(-c2cc(C(=O)NCc3ccc4c(c3)OCO4)[nH]n2)cc1C | -14 | -8% | 5 | -1.2 | -1

Reprinted from above, two compounds:
SMILES | YopH PTP inh | Mtb growth | Mtb betalactam | RecA splice inh | Arbovirus inh | others
C=CCN1C(=O)C2(OCCCO2)c2cc(Cl)ccc21 | . | . | -3 | 1.1 | .
CC(=O)C1=C(C)N(Cc2ccccc2)C(=O)N[C@H]1c1cccc(C(F)(F)F)c1 | -23 | -4% | 3 | 3.5 | 3

Other compounds.
SMILES | YopH PTP inh | Mtb growth | Mtb betalactam | RecA splice inh | Arbovirus inh | others
Cc1ccc(C)c(-n2c(SCC(=O)Nc3nnc(C)s3)nnc2-c2ccoc2C)c1 | -43 | -12% | 23 | -1.9 | 1
Cc1ccc(NC(=O)c2ccc(S(=O)(=O)NCc3ccco3)cc2)cc1 | . | . | -5 | 5.7 | .
CCOC(=O)CSc1nc2c(sc(=S)n2-c2ccccc2)c(=O)[nH]1 | -28 | -8% | 6 | -3.8 | 22
CCN(CC)C(=S)SCC(=O)Nc1ncc2c(n1)CCCC2=O | . | 2% | -3 | -0.1 | .
CCCCCC(=O)NC(NC(=S)N1CCOCC1)C(Cl)(Cl)Cl (configuration not stated) | -65 | 6% | -7 | . | -2
COc1ccc(C(CNC(=O)c2ccc(Cl)s2)N2CCOCC2)cc1 (configuration not stated) | . | . | -6 | -0.7 | .
O=C(CCNS(=O)(=O)c1ccc(Br)cc1)NCc1ccc2c(c1)OCO2 | -34 | 6% | -3 | 1.0 | 0
O=C(COC(=O)c1ccccc1NS(=O)(=O)c1cccs1)NC1CCCCC1 | -35 | 2% | 0 | 3.0 | -3
O=C(CCc1ccccc1)N1CCN(c2ccc(Cl)cc2)CC1 | -16 | 0% | 5 | 4.4 | 12
CCc1ccc(S(=O)(=O)c2cn(C)c3cc(OC)c(OC)cc3c2=O)cc1 | . | . | 8 | 4.2 | .
Oc1ccc2ccccc2c1N=Nc1ccc(F)cc1 | . | -7%&-11% | -8 | 0.3 | .
CC(=O)NC(CC(=O)OCC(=O)c1c(N)n(C)c(=O)n(C)c1=O)c1ccccc1 (configuration not stated) | . | -5% | -4 | -0.8 | 4
O=C(O)c1ccc(COc2ccccc2/C=C2\NC(=O)N(Cc3ccc(F)cc3)C2=O)cc1 | . | 2% | -6 | -6.4 | -1
CCC1CCCCN1S(=O)(=O)c1ccc(C(=O)Nc2nnc(-c3ccccc3Cl)o2)cc1 (configuration not stated) | 7 | 69% | 94 | . | -12
CC(=O)OCC(=O)[C@@]1(O)CC[C@H]2[C@@H]3CCC4=CC(=O)CC[C@]4(C)[C@H]3[C@@H](O)C[C@@]21C | -26 | -4% | 2&-2 | 5.1 | 19
COc1cc(C(=O)Nc2nnc(C3CC3)s2)ccc1OCc1c(C)noc1C | . | -5% | 3 | -0.3 | -2
Cc1ccc(S(=O)(=O)N2CCC(C(=O)N3CCC3)CC2)cc1 | . | . | -7 | 0.2 | .
CCC(=O)N1N=C(c2ccc(C)o2)CC1c1ccc(OC)cc1 (configuration not stated) | . | 0% | -1 | 4.0 | 3
CCOCc1[nH]c(=S)[nH]c(=O)c1Cc1ccc(OC(C)C)cc1 | . | -8% | -6 | 2.0 | 4
COc1ccc(N=NC2C(=O)N(c3ccccc3)N=C2C)cc1 (configuration not stated) | . | . | 86 | 1.7 | .
COC(=O)c1ccc(NC(=O)C2CC(=O)OC2c2ccccc2)cc1 (configuration not stated) | . | 0% | -2 | -2.5 | .
CCSc1nnc([C@@H](N)Cc2c[nH]c3ccccc23)o1 | -27 | -17% | 12 | -1.2 | 6
COc1ccc(/C(N)=N/OC(=O)c2ccc(Br)o2)cc1 | . | . | 9 | -1.4 | .
CSc1nc(Cc2ccccc2)cc(=O)[nH]1 | . | 5% | 2 | 1.7 | 5
CCS(=O)(=O)c1ccc(OC)c(N=Nc2ccc(O)c3ncccc23)c1 | . | 5% | 13 | 2.7 | -11
O=C1OCCC1Sc1ncnc2sc3c(c12)CCC3 (configuration not stated) | 31 | -7% | 0 | -0.4 | 1
CNCCOc1nc(N2CCOCC2)nc(C)c1[N+](=O)[O-] | -41 | -13% | 3 | -2.8 | -2
CC(C)N1CC(COc2ccccc2Cl)OC1=O (configuration not stated) | . | . | -2 | 1.4 | .
CC(C)(C)c1ccc(NC(=O)c2ccc3c(c2)S(=O)(=O)c2ccccc2C3=O)cc1 | . | 12% | 0 | -1.8 | .
CC(C)CC(=O)NC(=S)Nc1ccc(S(=O)(=O)NC(C)(C)C)cc1 | -20 | -1% | 8 | -1.8 | 3
COc1ccc(C2CC(=O)Oc3cc(O)cc(O)c32)cc1 (configuration not stated) | . | -16% | -7 | -1.7 | .
CCn1ccc(C(=O)Nc2ccsc2C(=O)OC)n1 | . | . | -4 | -1.1 | .
COc1ccc(NC(=O)COC(=O)C2CC(=O)N(Cc3ccc(C)cc3)C2)cc1 (configuration not stated) | . | . | 4 | -1.5 | .
O=C(NC1CCCC1)C(c1ccncc1)N(C(=O)c1ccco1)c1ccccc1 (configuration not stated) | . | . | 4 | -2.3 | .
O=c1[nH]c(=S)n(-c2ccccc2Cl)c(O)c1C=NCCN1CCNCC1 | . | . | 4 | -0.2 | .
CC(C)n1c(O)c(N=NC(=O)Cn2ccc(C(F)(F)F)n2)c2ccccc21 | -26 | 7% | -6 | -1.5 | -2
c1cncc(CNc2ccc3c(c2)OCO3)c1 | -7 | -9% | -2 | -1.2 | -6
CCN1CC2=C(OC(N)=C(C#N)C2c2cccs2)/C(=C\c2cccs2)C1 (configuration not stated) | -17 | 4% | -1 | 8.9 | -5
O=C(N1CCOCC1)N(Cc1ccccc1)c1ccccn1 | -19 | 0% | -2 | 0.2 | 3
Cc1ccc(C(=O)CSc2nccn2-c2ccccc2)cc1 | 13 | 11% | -5 | 2.0 | -8
COc1ccc(C2C(C#N)=C(N)OC3=C2C(=O)CC(C)C3)c(OC)c1OC (configuration not stated) | -124 | -17% | -7 | 1.5 | 10
CCn1cc(C(=O)N2CCCC(C(=O)c3ccc4ccccc4c3)C2)cn1 (configuration not stated) | . | . | -1 | -0.4 | .
COc1ccc(C)cc1N=Nc1ccc(O)c2ncccc12 | . | 32µM* | . | -1.0 | -16
CN(CC(=O)Nc1ccc(F)cc1)S(=O)(=O)c1ccc2c(c1)c(=O)n(C)c(=O)n2C | . | . | 8 | -2.7 | .
O=C(OCC1OC(n2ccc(=O)[nH]c2=O)C(Cl)C1O)c1ccccc1 (configuration not stated) | . | . | -5 | -0.6 | .
Cc1sc2ncn(CC(=O)NCCCC(=O)N3CCN(Cc4ccc5c(c4)OCO5)CC3)c(=O)c2c1C | . | -2% | -2 | -1.8 | 3
Cc1cc(=O)oc2cc(O[C@@H]3O[C@H](CO)[C@@H](O)[C@H](O)[C@H]3O)ccc12 | . | . | ? | 0.0 | .
Oc1[nH]c2ccc(Br)cc2c1N=NC(=S)N1CCOCC1 | . | 10% | 46 | 47* | .
COc1ccc(-c2cc(C)nc(SCc3cccc(C(=O)O)c3)n2)cc1 | 0 | 2% | 3 | -1.9 | 10
c1coc(CSCc2cn3cccnc3n2)c1 | -43 | -6% | -11 | -7.8 | 5
CC1(C)CC(=O)C2=C(C1)N(c1ccccc1)C(N)=C(C#N)C2c1ccsc1 (configuration not stated) | 5 | -2% | -9 | 1.3 | 11
CCOC(=O)C1(CC2CC2)CCN(Cc2cnc(-c3ccc(OC)cc3)nc2)CC1 | . | 1% | 4 | . | 11
COc1ccc(Cl)cc1C(=O)Nc1ccc2c(c1)OCO2 | -54 | -4% | 71 | . | 0
COc1cccc(CNC(=O)CCN2C(=O)[C@@H]3Cc4ccccc4CN3C2=O)c1 | . | . | 2 | 0.2 | .
c1cncc(-c2nc(NCC3CCCO3)c3ccccc3n2)c1 (configuration not stated) | . | . | 6 | -5.8 | .
